# Bioassay records from PubChem.
# S aureus helic = S. aureus DNA helicase inhibition; purified S. aureus helicase, fluorescence unwinding assay; about half of the hits fall short of the stated cut; inhibition, %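 (tested at about 80 µM)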; actives 0.05% (n = 120,000); AID 485395;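 active = both duplicates at 50% or more, or one of them with a favoured structure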;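 note: 0% = mean of negative control wells and 100% = mean of positive control wells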
# MgrA DNA FP = S. aureus MgrA-DNA binding modulation; fluorescence polarization; inhibition, %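 (about 10 µg/mL by stock and volumes)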; actives 0.13% (n = 84,000); AID 602314;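 active = above 50% in either of two replicates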;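 note: 0% = protein plus DNA without compound and 100% = DNA alone without protein; higher means less MgrA bound to DNA so lower polarization; one replicate is shown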
# Numbers without * were called inactive; / = not tested or not shown; & = joins results of further samples.
S aureus helic	MgrA DNA FP	SMILES
-4.0	0.8	Cc1ccc(C(=O)N2N=C3c4ccccc4S(=O)(=O)N3C2N2CCCCC2)cc1 (stereo not given)
10.0	/	CC(C(=O)N1c2ccc(F)cc2CCC1C)N1C(=O)c2ccccc2C1=O (stereo not given)
8.0	1.5	O=C(CN1C(=O)c2ccccc2C1=O)Nc1nccs1
26.0	/	COC(=O)CSc1nc2ccccc2c(=O)n1-c1ccccc1
13.0	-3.5	CC(CN1CCCC1)OC(=O)c1ccccc1Cl (stereo not given)
-7.0	1.5	Cc1ccc(OCc2nn(CN3CCC4(CC3)OCCO4)c(=S)n2C)cc1C
-2.0	-0.9	COc1ccc2c(c1)C(=O)CC(c1ccc(OC)c(OC)c1)O2 (stereo not given)
-1.0	/	CC(C(=O)NCc1ccc2c(c1)OCO2)N1CCN(c2ccc(O)cc2)CC1 (stereo not given)
7.0	4.5	CCN1C(=O)CC(Sc2ccccc2N)C1=O (stereo not given)
25.0	/	CCC(Oc1ccccc1)c1nc(-c2ccc(OC)c(OC)c2)no1 (stereo not given)
4.0	/	CCn1c2ccccc2c2nc3cc(C(=O)O)ccc3nc21
8.0	-0.8	O=c1[nH]c(=O)n(Cc2ccco2)c2c1C(C(F)(F)F)(C(F)(F)F)N=C(CCC1CCCCC1)N2
5.0	/	O=C(CNC(=O)c1ccco1)OCc1ccc(Cl)cc1
0.0	/	Cc1c(C#N)c(N)nc(SCC(=O)c2ccc(Cl)cc2)c1C#N
22.0	-0.7	CCCN(CCC)c1ccc(/C=N/n2cnnc2)cc1
9.0	-0.8	O=C(O)CCC(=O)Nc1ccc(Cc2ccncc2)cc1

# In another format: 2 of the compounds above
CCC(Oc1ccccc1)c1nc(-c2ccc(OC)c(OC)c2)no1 (stereo not given)
  S aureus helic: 25.0	MgrA DNA FP: /

CCn1c2ccccc2c2nc3cc(C(=O)O)ccc3nc21
  S aureus helic: 4.0	MgrA DNA FP: /

# Next part.
S aureus helic	MgrA DNA FP	SMILES
17.0	/	Cn1c(C2CC(=O)N(Cc3cccs3)C2)nc2ccccc21 (stereo not given)
5.0	1.6	COCC(=O)Nc1cccc(NC(C)=O)c1
-8.0	/	CC(=O)n1c(=O)c2ccccc2c(=O)n1-c1ccccc1
-35.0	/	CCOC(=O)N1CCC(NC(=O)c2ccc3c(c2)C(=O)N(C2CCN(C(=O)OCC)CC2)C3=O)CC1
/	1.4	O=C(Nc1ccc(N2CCN(Cc3ccccc3)CC2)cc1)Nc1ccc(C(F)(F)F)cc1
-3.0	/	C#CCn1c(=NC(=O)C2COc3ccccc3O2)sc2cccc(OC)c21 (stereo not given)
3.0	0.8	CCC(c1nnnn1C(C)(C)CC)N(Cc1cc2ccc(C)cc2[nH]c1=O)C1CCCC1 (stereo not given)
20.0	/	c1ccc(Cn2c(SCCOc3ccccc3)nnc2-c2ccco2)cc1

# Retrieved by structure from the entries so far (7):
S aureus helic	MgrA DNA FP	SMILES
5.0	1.6	COCC(=O)Nc1cccc(NC(C)=O)c1
3.0	0.8	CCC(c1nnnn1C(C)(C)CC)N(Cc1cc2ccc(C)cc2[nH]c1=O)C1CCCC1 (stereo not given)
17.0	/	Cn1c(C2CC(=O)N(Cc3cccs3)C2)nc2ccccc21 (stereo not given)
20.0	/	c1ccc(Cn2c(SCCOc3ccccc3)nnc2-c2ccco2)cc1
-35.0	/	CCOC(=O)N1CCC(NC(=O)c2ccc3c(c2)C(=O)N(C2CCN(C(=O)OCC)CC2)C3=O)CC1
-8.0	/	CC(=O)n1c(=O)c2ccccc2c(=O)n1-c1ccccc1
-3.0	/	C#CCn1c(=NC(=O)C2COc3ccccc3O2)sc2cccc(OC)c21 (stereo not given)

# (cont.)
S aureus helic	MgrA DNA FP	SMILES
-25.0	/	NC1=NC(=O)/C(=C/c2ccccc2OCC(=O)Nc2ccc(F)cc2)S1
-5.0	/	CCn1c(SCC(=O)OCc2nc3ccccc3c(=O)n2CC#N)nnc1-c1cccs1
4.0	/	O=C(CSc1ccc(S(=O)(=O)N2CCN(Cc3ccccc3)CC2)cn1)NC(=O)NC1CCCC1
5.0	0.1	Cc1ccccc1NC(=O)COC(=O)c1cccc2ccccc12
-4.0	/	CCCCn1c(SC(C)C(N)=O)nc2ccccc2c1=O (stereo not given)
8.0	-1.2	O=C(CCCN1C(=O)CSc2ncccc21)NCc1ccccc1
-19.0	/	CCOC(=O)c1c(C)oc2nc(C)nc(N3CCc4cc(OC)c(OC)cc4C3C)c12 (stereo not given)
11.0	/	O=C(Nc1nc2c(F)cccc2s1)c1ccco1
6.0	2.1	O=C(CCCOc1ccc(Cl)cc1Cl)Nc1nccs1
0.0	/	COc1ccc(-c2cc(C(=O)NN)n(CCC#N)n2)cc1
14.0	2.8	CN1CCC(OC(=O)c2cc3cc(Cl)cc(Cl)c3oc2=O)CC1
2.0	-1.1	COc1ccccc1NC(=O)c1c(NCc2sccc2C)sc2c1CCCC2
/	0.3	Cc1cc(-c2nn(C)c(=O)c3ccccc23)cc(C)c1OCC(=O)NN
0.0	-1.4	COC(=O)c1ccc(OC)c(Cn2c(=O)n(C)c(=O)c3ccccc32)c1
/	3.3	CNc1cc(F)nc(NC)n1
-29.0	/	O=C1N(CN2CCOCC2)c2ccccc2C12OCCO2
0.0	/	O=C(NCCCn1ccnc1)c1ccc(Br)c(S(=O)(=O)N2CCOCC2)c1
-5.0	/	O=C(CSc1ncccc1C(=O)Nc1ccnn1Cc1cccnc1)Nc1ccc2c(c1)OCO2
-16.0	/	COc1ccc(-c2noc(N3CCN(c4cccc(C)c4C)CC3)n2)cc1
/	-0.8	Cc1onc(-c2ccccc2)c1C(=O)Nc1ccc(N2CCOCC2)cc1
-13.0	/	COc1ccc(CCNC(=O)c2ccc(NC(=O)CC#N)cc2)cc1OC
-8.0	/	CC(OC(=O)c1cn(Cc2ccccc2)nc1-c1cccs1)C(N)=O (stereo not given)
/	-1.0	CC(C)(C(=O)O)C(C)(C)C(=O)O
10.0	-0.9	CN1C(=O)c2ccccc2C(C(=O)NCCCN2CCCCC2)C1c1cccs1 (stereo not given)
-1.0	/	CCOC(=O)Nc1ccc2c(CSc3ncccn3)cc(=O)oc2c1
6.0	0.2	C=CCSc1nnc2c(n1)OC(c1cccnc1)Nc1ccccc1-2 (stereo not given)
-19.0	/	CC(NC(=O)C(C)(C)C)c1nc2ccccc2n1C (stereo not given)
-19.0	/	O=C1CCCN1CCCNc1ncnc2sccc12
7.0	/	Cc1nc(CC(=O)NN=C2C3CC4CC(C3)CC2C4)cs1
12.0	-6.9	CN(C)S(=O)(=O)Nc1ccc(C(=O)O)cc1
/	-2.0	NS(=O)(=O)/C=C/c1ccccc1
8.0	/	Cc1ccc(-n2cnc3cc(C(=O)NCC4CCCO4)ccc32)cc1Cl (stereo not given)
3.0	-1.6	Cc1ccc(C(=O)c2coc3ccc(O)c(CN(C)C)c23)cc1
/	-0.7	O=C(Nc1cccnc1)c1ccc(CSc2ccc(Cl)cc2)o1
5.0	1.4	Cc1cccc(C)c1OCC(=O)NCc1nnc(SCC(=O)NC2CCCCC2C)n1C (stereo not given)
/	-1.9	COc1ccc(OCC(F)(F)F)c(C(=O)Nc2ccc(Cl)cc2)c1
8.0	3.2	O=c1cc(-c2ccc(-c3ccccc3)cc2)[nH][nH]1
9.0	/	CCN1CCCC1CNC(=S)NCc1ccccc1 (stereo not given)
-7.0	/	COC(=O)c1ccc(-n2c(C)cc(C(=O)CSc3nncs3)c2C)cc1
/	-2.6	Fc1ccc(C2Nc3c(Cl)cc(Cl)cc3C3C=CCC32)cc1 (stereo not given)
0.0	/	O=C(CN1C(=O)/C(=C\c2cccc(Cl)c2)Oc2ccccc21)NCCN1CCCC1
12.0	0.1	CC(CCc1ccccc1)NC(=O)c1n[nH]c2c1CCCC2 (stereo not given)
-158.0	/	N#Cc1c(/N=C/c2c[nH]c3ccccc23)oc(-c2ccccc2)c1-c1ccccc1
7.0	0.8	CCc1ccc(Sc2cc(C(=O)NCC3CCCO3)c3ccccc3n2)cc1 (stereo not given)
3.0	0.6	COc1ccc(OCC(=O)N2c3ccccc3Sc3ccccc32)cc1
8.0	/	CN(C(=O)C1CCC(CNS(=O)(=O)c2cccc3nsnc23)CC1)C1CCCCC1 (stereo not given)
-1.0	-2.7	NCc1cn[nH]c1-c1ccccc1
/	2.9	COc1ccc(N=Cc2oc(O)c3ccccc23)cc1
-11.0	-1.2	CCN1CCN(C(=O)CC#N)CC1
/	-2.7	N=c1scc(-c2ccc(Cl)cc2)n1-c1ccccc1N1CCOCC1
/	-3.9	COC(=O)C(NC(=O)c1cn(C)nc1C(F)(F)F)c1ccccc1 (stereo not given)
-3.0	/	Fc1ccccc1N1CCN(Cn2nc(-c3ccco3)oc2=S)CC1
19.0	/	N=c1n(CCN2CCCCC2)c2ccccc2n1CC(O)c1cccs1 (stereo not given)
/	3.3	Cc1ccc(NS(=O)(=O)c2ccc(Cl)cc2)c(N)c1
4.0	/	Cc1cc(C)n(CCCNC(=O)CSc2nc(-c3ccccc3)c(-c3ccccc3)o2)n1
8.0	-3.3	CC(CN1CCCCC1)OC(=O)c1cccs1 (stereo not given)

# Next section:
S aureus helic	MgrA DNA FP	SMILES
-23.0	/	CCCCSC1=C(C#N)C(=O)NC(c2ccco2)S1 (stereo not given)
3.0	1.8	O=C(CSc1nc2ccccc2c(=O)n1CCc1ccccc1)NCCc1ccccc1
/	-1.2	CCOc1cc(C2C(C(=O)OC)=C(C)NC3=C2C(=O)CC(c2ccc(OC)cc2)C3)ccc1OC(C)=O (stereo not given)
-12.0	/	C#CCOC(=O)Nc1cnc(OC)c(C(F)(F)F)c1
-45.0	/	C=CCNC(=O)COc1cc(C)c(Cl)c(C)c1
7.0	-3.5	COCCn1nnnc1CN1CCC(NC(=O)Nc2cccc(OC)c2)CC1
2.0	/	CCNc1ccc(P(=O)(CC)CC)cc1
-30.0	2.9	COc1ccc(CC(=O)N=c2sc3cc(Cl)ccc3n2C)cc1
-2.0	3.9	Cc1ccc2c(Cl)cc(Cl)c(OCC(=O)NCc3ccco3)c2n1
12.0	/	O=C(O)c1cccc(N2C(=O)/C(=C\C=C\c3ccco3)SC2=S)c1
/	9.4	Cc1ccc(C=Nc2ccc(C(N)=O)cc2)o1
8.0	1.7	c1ccc(C2=Nc3ccccc3C(c3ccncc3)=NN2)cc1
/	0.3	O=S(=O)(NCCc1ccccn1)c1ccc(-c2ccon2)s1
18.0	/	O=C(NCC1CCCCC1)C1CCN(c2cnccn2)CC1
-2.0	/	Cn1c(N)c(C(=O)COC(=O)C2=NNC(=O)CC2)c(=O)n(C)c1=O
-3.0	0.2	Cc1ccc(-c2nn(CCC(=O)NCCN3CCOCC3)c(=O)c3ccccc23)cc1
1.0	-1.2	N#CC1=CS/C(=C2\C(=O)NN(c3ccccc3)C2=O)SC1=N
-86.0	33.5	CC1(C)Cc2c(C#N)c3nc(-c4ccccc4)cnn3c2CO1
-26.0	/	O=C(NCc1ccco1)c1sc2ccccc2c1Cl
/	-2.5	CNc1nc(C23CC4CC(CC(C4)C2)C3)ns1
-26.0	7.0	COc1ccc2cc3c(N)c(C(=O)Nc4ncc(C)s4)sc3nc2c1
16.0	-1.9	Cc1cc(NC2c3ncccc3C(=O)N2C2CCCCC2)ccc1Br (stereo not given)
1.0	-4.8	C=CCNC(=O)CN1CCN(c2ccccc2)CC1
/	-1.7	Cc1ccc(C(=O)C(C)S(=O)(=O)c2ccc(Cl)cc2)cc1Cl (stereo not given)
/	-1.9	Nc1nccc(-c2csc(COc3ccc(Cl)cc3)n2)n1
-4.0	/	Cc1[nH]c2ccc(C(=O)OCc3nnc(-c4ccccc4)o3)cc2c1C
11.0	/	OCc1nnn(-c2ccccc2)c1CO
/	-1.2	CSc1cccc(N2C(=O)SC(c3ccccc3)C2=O)c1 (stereo not given)
-17.0	/	CC(C)C(O)P(=O)(OCc1ccccc1)c1ccc(N(C)C)cc1 (stereo not given)
11.0	-1.5	NC(=O)Cn1nc(C(F)(F)F)c2c1CCCC2
19.0	/	CC(=O)Nc1ccc(-c2cn3cccnc3n2)cc1
-17.0	/	CCOC(=O)C1CCN(c2c(S(=O)(=O)c3ccccc3)cnc3ccc(F)cc23)CC1
1.0	-1.9	CC1CCCCN1C(=O)C12CCC(C)(C(=O)C1)C2(C)C (stereo not given)
-10.0	/	Cc1ccc2ncc(C(=O)N3CCc4ccccc4C3)c(=O)n2c1
-2.0	0.2	CCC(C(=O)N1CCN(S(C)(=O)=O)CC1)c1ccccc1 (stereo not given)
-24.0	/	CCOC(=O)C1=C(SC)NC(=O)C(C)(C#N)C12CCCCC2 (stereo not given)
16.0	2.8	COc1ccc2c(c1)c(C(=O)CNc1nc(C)cs1)c(C)n2C
-12.0	/	CCn1c(CCC(=O)Nc2ccnn2Cc2cccs2)nc2cc(S(=O)(=O)N(C)C)ccc21
20.0	/	CCC(C(=O)N1CCN(C(=O)c2ccco2)CC1)n1nc(C)c2sc3ccccc3c2c1=O (stereo not given)
0.0	2.2	CC(C)C1Oc2cc3oc(=O)ccc3cc2/C1=N\NC(N)=S (stereo not given)
5.0	-1.5	COc1cccc(-c2cc(C(=O)N3CCOCC3)on2)c1
-17.0	/	CCCn1c2ccccc2c2cnn(CC(=O)Nc3ccccc3)c(=O)c21
6.0	1.6	Cc1cc(=O)[nH]c(C(C)C)n1
0.0	-0.6	N#CC(C#N)=Cc1cn(-c2ccccc2)nc1-c1ccccc1
2.0	0.7	Cc1noc(C)c1CSc1ccc2ccccc2n1
-4.0	/	CCN(CC(=O)Nc1ccc2c(c1)OCCO2)CC(=O)Nc1sccc1C#N
-11.0&12.0	/	CN(C)S(=O)(=O)c1ccc(C(=O)NCCn2ccc3ccccc32)cc1
/	-0.9	CC1=NN(c2ccc(S(N)(=O)=O)cc2)C(=O)/C1=C\c1ccc(-c2ccc(C)cc2[N+](=O)[O-])o1
9.0	5.3	CN(C1CCCCC1)S(=O)(=O)c1ccc(CCN2C(=O)c3cccnc3C2=O)cc1
/	3.1	Cc1cc(N2CCN(CC(=O)c3ccccc3)CC2)c2ccccc2n1

# These rows are one share of the data, so the mix of outcomes need not match the whole.
